# Bioassay records: PubChem, Broad Institute
# Ecoli rRNA inh – selective bacterial rRNA inhibition in E. coli; E. coli WT GFP vs humanized-ribosome RFP mutants, fluorescence, 24 h; active compounds read low; DMSO median 0, no signal -100; GFP signal change (wild-type ribosome), % (concentration not given with the values); 350,000 tested, 1.6% active; AID 720706;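 active means significant combined selectivity score with lowered wild-type GFP, culture density cut under 30%, mutant RFP and density less affected; inactive means any of these conditions unmet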; further: one replicate is shown; some compounds called inactive have numbers as strong as hits
# FGF22 binding – shifts melting point of recombinant human FGF22 | 340,000 tested, 1.5% active | recombinant FGF22 thermal shift, SYPRO orange fluorescence; percent of sucrose octasulfate shift, DMSO zero | Q9HCT0 | calls only at 9.99 µM;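 active means melting point raised past a set limit in the mean and every replicate; three in four hits are not shown here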
# Target sequence (Q9HCT0 whole entry, looked up): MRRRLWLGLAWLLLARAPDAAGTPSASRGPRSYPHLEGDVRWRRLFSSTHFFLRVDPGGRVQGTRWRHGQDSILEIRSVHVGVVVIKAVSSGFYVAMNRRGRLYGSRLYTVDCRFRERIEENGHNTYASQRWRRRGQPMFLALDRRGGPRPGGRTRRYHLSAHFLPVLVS
# Ecoli rRNA inh OD600 – recorded beside Ecoli rRNA inh, whose call it bears; OD600 change, %; measured here: OD600 growth;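 optical density of the mix in the first replicate; 0 = DMSO median and -100 = no signal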
# Ecoli rRNA inh RFP – second read-out of Ecoli rRNA inh, no call of its own (marks repeat the call); RFP signal change, %; measured here: RFP humanized mutant strains;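 first replicate; 0 = DMSO median and -100 = no signal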
# Numbers without * were called inactive; i = inactive; · = no result given. This is a subset; rates above refer to the full screens.
# Letters: A = Ecoli rRNA inh; B = Ecoli rRNA inh OD600; C = Ecoli rRNA inh RFP; D = FGF22 binding
mol: COCC(=O)Nc1ccc2c(c1)C(=O)N(C)C[C@@H](OC)[C@H](C)CN(Cc1cc(-c3ccccc3)on1)[C@H](C)CO2
  A: -4; B: 0; C: -0.4; D: i

mol: CCC(=O)Nc1ccc2c(c1)C(=O)N(C)[C@H]1CC[C@H](CC(=O)NC3CCCC3)O[C@@H]1CO2
  A: 2; B: 2; C: -2.0; D: i

mol: O=C(c1cnccn1)N1CC[C@@H]2[C@H]1c1cc(C#Cc3cccnc3)ccc1N[C@@H]2CO
  A: -5; B: 10; C: -2.4; D: i

mol: COc1cccc(NC(=O)Nc2ccc3c(c2)C(=O)N(C)[C@H]2CC[C@@H](CC(=O)O)O[C@@H]2CO3)c1
  A: 6; B: 6; C: -2.7; D: i

mol: COc1ccc(NC(=O)N(C)C[C@@H]2Oc3c(NS(=O)(=O)c4cccs4)cccc3C(=O)N([C@H](C)CO)C[C@H]2C)cc1
  A: -5; B: 5; C: -2.4; D: i

mol: C[C@H]1CCCCO[C@@H](CN(C)CC2CCCCC2)[C@@H](C)CN([C@@H](C)CO)C(=O)c2cc(NC(=O)CCC(F)(F)F)ccc2O1
  A: -2; B: 1; C: 0.1; D: i

mol: CN1CCN(C(=O)C[C@@H]2CC[C@@H](NC(=O)Nc3ccccc3F)[C@@H](CO)O2)CC1
  A: 3; B: -2; C: -2.0; D: i

mol: O=C(N[C@H]1C=C[C@H](CC(=O)N2CCN(c3ccccc3)CC2)O[C@@H]1CO)c1ccncc1
  A: 1; B: 10; C: -1.1; D: i

mol: CCCNC(=O)N[C@@H]1CC[C@H](CC(=O)NC2CCC2)O[C@@H]1CO
  A: 2; B: 6; C: -2.3; D: i

mol: N#C[C@@H]1[C@@H](c2ccccc2-c2cccc(F)c2)[C@H](CO)N1C(=O)C1CCCCC1
  A: 1; B: -26; C: 5.2; D: i

mol: Cc1noc(C)c1NC(=O)Nc1cccc2c1O[C@H](CN(C)S(=O)(=O)c1ccc(Cl)cc1)[C@@H](C)CN([C@H](C)CO)C2=O
  A: 4; B: 1; C: 0.3; D: i

mol: C[C@@H]1CN([C@H](C)CO)C(=O)c2cccc(NC(=O)C3CCCCC3)c2O[C@H]1CN(C)S(=O)(=O)c1ccccc1
  A: 2; B: -6; C: -0.6; D: i

mol: CCCC#Cc1ccc2c(c1)O[C@@H](CN(C)C(=O)NC(C)C)[C@@H](C)CN([C@@H](C)CO)S2(=O)=O
  A: 1; B: -5; C: 1.0; D: i

mol: COCC(=O)Nc1ccc2c(c1)OC[C@@H](C)N(Cc1cccnc1)C[C@H](C)[C@@H](OC)CN(C)C2=O
  A: 1; B: 6; C: -0.8; D: i

mol: O=C(C[C@@H]1C[C@@H]2c3cc(NC(=O)c4cccnc4)ccc3O[C@@H]2[C@H](CO)O1)NCc1ccccc1
  A: 2; B: -2; C: -0.9; D: i

mol: CCCNC(=O)Nc1ccc2c(c1)C(=O)N(C)[C@H]1CC[C@@H](CC(=O)NC3CCC3)O[C@H]1CO2
  A: -1; B: -6; C: -1.0; D: i

mol: C[C@H]1CCCCO[C@H](CN(C)C(=O)Nc2cccc3ccccc23)[C@@H](C)CN([C@@H](C)CO)C(=O)c2cc(NC(=O)Cc3ccccc3)ccc2O1
  A: -1; B: 0; C: -4.0; D: i

mol: CC(=O)NC[C@H]1[C@H](c2ccc(-c3ccccc3F)cc2)[C@@H](CO)N1C(C)=O
  A: 2; B: -5; C: 2.0; D: i

mol: CCS(=O)(=O)Nc1ccc2c(c1)C(=O)N(C)[C@H]1CC[C@@H](CC(=O)NCCCN3CCOCC3)O[C@H]1CO2
  A: 0; B: 4; C: -2.5; D: i

mol: COc1cccc(CNC(=O)C[C@@H]2CC[C@@H](NC(=O)C3CC3)[C@H](CO)O2)c1
  A: 1; B: 11; C: -0.6; D: i

mol: C[C@@H]1CN([C@@H](C)CO)S(=O)(=O)c2ccc(/C=C/c3ccccc3)cc2O[C@H]1CN(C)C(=O)Nc1cc(F)ccc1F
  A: 1; B: 2; C: 0.4; D: i

mol: O=C(Cc1ccccn1)NCC[C@H]1CC[C@H](NS(=O)(=O)c2ccc(F)cc2)[C@@H](CO)O1
  A: 4; B: -4; C: 1.9; D: i

mol: C[C@H](CO)N1C[C@H](C)[C@H](CN(C)S(=O)(=O)c2cn(C)cn2)OCCCC[C@H](C)Oc2ccc(NS(=O)(=O)c3ccccc3)cc2C1=O
  A: -2; B: -1; C: 2.6; D: i

mol: CN1CCN(C(=O)C[C@@H]2CC[C@@H]3[C@H](COC[C@@H](O)CN3Cc3cccc(-c4ccncc4)c3)O2)CC1
  A: i; B: ·; C: ·; D: i

mol: C[C@H](CO)N1C[C@H](C)[C@@H](CN(C)CC2CC2)Oc2cc(-c3cccc(C#N)c3)ccc2S1(=O)=O
  A: 0; B: 0; C: -2.3; D: i

# Limited to Ecoli rRNA inh and Ecoli rRNA inh RFP (three entries from above):
Molecule	Ecoli rRNA inh	Ecoli rRNA inh RFP
C[C@H]1CCCCO[C@H](CN(C)C(=O)Nc2cccc3ccccc23)[C@@H](C)CN([C@@H](C)CO)C(=O)c2cc(NC(=O)Cc3ccccc3)ccc2O1	-1	-4.0
C[C@@H]1CN([C@H](C)CO)C(=O)c2cccc(NC(=O)C3CCCCC3)c2O[C@H]1CN(C)S(=O)(=O)c1ccccc1	2	-0.6
C[C@H](CO)N1C[C@H](C)[C@@H](CN(C)CC2CC2)Oc2cc(-c3cccc(C#N)c3)ccc2S1(=O)=O	0	-2.3

# Additional entries.
# Letters: A = Ecoli rRNA inh; B = Ecoli rRNA inh OD600; C = Ecoli rRNA inh RFP; D = FGF22 binding
mol: CCC(=O)N(C)C[C@H]1Oc2ncc(C#Cc3ccccc3)cc2C(=O)N([C@@H](C)CO)C[C@@H]1C
  A: -5; B: -4; C: 0.6; D: i

mol: C[C@H](CO)N1C[C@H](C)[C@H](CN(C)S(C)(=O)=O)Oc2ncc(C#CC(C)(C)O)cc2C1=O
  A: 7; B: 9; C: 1.0; D: i

mol: C[C@H](CO)N1C[C@H](C)[C@H](CN(C)S(=O)(=O)c2ccc(F)cc2)Oc2c(NS(=O)(=O)c3cn(C)cn3)cccc2C1=O
  A: 2; B: 7; C: -0.9; D: i

mol: COCCNC(=O)C[C@@H]1CC[C@@H]2[C@H](COc3ccc(NC(=O)c4cnccn4)cc3C(=O)N2C)O1
  A: 0; B: -3; C: -1.4; D: i

mol: O=C(NC1Cc2ccccc2C1)[C@@H]1[C@@H](CO)[C@@H]2Cn3c(ccc(-c4ccccc4)c3=O)[C@H]1N2
  A: 4; B: 10; C: -1.1; D: i

mol: COc1ccc(NC(=O)Nc2ccc3c(c2)[C@@H]2C[C@@H](CC(=O)N4CCCCC4)O[C@H](CO)[C@@H]2O3)cc1
  A: 1; B: 0; C: -3.7; D: i

mol: C[C@H](CO)N1C[C@H](C)[C@@H](CN(C)Cc2ccc(-c3ccccc3)cc2)Oc2ccc(NC(=O)NC3CCCCC3)cc2C1=O
  A: -6; B: -5; C: 0.7; D: i

mol: C[C@@H]1CN([C@H](C)CO)C(=O)c2cc(NC(=O)Cn3cnnn3)ccc2O[C@@H]1CN(C)S(=O)(=O)c1ccc(F)cc1
  A: 1; B: -6; C: -4.0; D: i

mol: C[C@H](CO)N1C[C@H](C)[C@H](CN(C)C(=O)CN(C)C)Oc2ncc(-c3ccccc3F)cc2C1=O
  A: 7; B: 11; C: -0.6; D: i

mol: C[C@@H]1CN([C@@H](C)CO)C(=O)c2cc(NC(=O)Cc3ccccc3)ccc2O[C@H]1CN(C)Cc1ccc(C(F)(F)F)cc1
  A: -8; B: -24; C: 1.7; D: i

mol: COc1ccc(SSc2ccc(OC)cc2C(=O)O)c(C(=O)O)c1
  A: 12; B: 12; C: -2.2; D: i

mol: C[C@@H]1CCCCO[C@H](CN(C)C(=O)NC2CCCCC2)[C@H](C)CN([C@@H](C)CO)C(=O)c2cc(NC(=O)Nc3ccccc3)ccc2O1
  A: 2; B: 4; C: -1.0; D: i

mol: CN1C(=O)c2cc(NC(=O)c3cccs3)ccc2OC[C@H]2O[C@@H](CC(=O)NCC3CC3)CC[C@@H]21
  A: -2; B: -2; C: 0.8; D: i

mol: O=C(Nc1ccc(C(F)(F)F)cc1)N[C@@H]1CC[C@@H](CCn2cc(C3(O)CCCC3)nn2)O[C@H]1CO
  A: -5; B: -22; C: 7.7; D: i

mol: COc1cccc(-c2ccc([C@H]3[C@@H](CO)N4CCCCN(CC5CC5)C[C@@H]34)cc2)c1
  A: 5; B: -2; C: -0.7; D: i

mol: COc1cccc(S(=O)(=O)Nc2ccc3c(c2)[C@@H]2C[C@@H](CC(=O)NCc4ccc(Cl)cc4)O[C@H](CO)[C@@H]2O3)c1
  A: -24; B: -60; C: 4.5; D: i

mol: COc1ccccc1C(=O)Nc1ccc2c(c1)C(=O)N(C)[C@@H]1CC[C@H](CC(=O)NCc3ccc(Cl)c(Cl)c3)O[C@@H]1CO2
  A: -4; B: -13; C: 4.3; D: i

mol: COCC(=O)N1[C@H](CO)[C@H](c2ccccc2-c2ccc(C)cc2)[C@@H]1C#N
  A: -1; B: -2; C: -1.5; D: i

mol: N#Cc1ccc(-c2ccc3c(c2)[C@H]2[C@H](CCN2C(=O)c2ccc(F)cc2)[C@@H](CO)N3)cc1
  A: -8; B: -56; C: 30; D: i

mol: CC(C)NC(=O)N(C)C[C@@H]1Oc2c(NC(=O)c3ccc(-c4nccs4)cc3)cccc2C(=O)N([C@H](C)CO)C[C@H]1C
  A: -2; B: -4; C: -2.9; D: i

mol: COCC(=O)Nc1ccc2c(c1)C(=O)N(C)C[C@@H](OC)[C@H](C)CN(Cc1cc(F)ccc1F)[C@@H](C)CO2
  A: -4; B: -13; C: -0.2; D: i

mol: C[C@@H]1CN([C@H](C)CO)C(=O)Cc2cc(NC(=O)Cc3ccccc3)ccc2O[C@@H]1CN(C)Cc1ccccc1
  A: 1; B: 9; C: 1.8; D: i

mol: C[C@@H]1CN([C@@H](C)CO)C(=O)Cc2cc(NS(=O)(=O)c3cccs3)ccc2O[C@@H]1CN(C)C(=O)Nc1cccc2ccccc12
  A: -4; B: -10; C: 5.1; D: i

mol: CO[C@@H](CN(C)C(=O)c1ccccc1F)[C@@H](C)CN([C@H](C)CO)S(=O)(=O)c1ccc(F)cc1
  A: 1; B: 8; C: 3.5; D: i

mol: COc1ccc(CNC(=O)C[C@H]2C[C@H]3c4cc(NC(=O)NC5CCCC5)ccc4O[C@H]3[C@@H](CO)O2)cc1
  A: 2; B: 0; C: -3.4; D: i

mol: COc1ccc(NC(=O)N(C)C[C@H]2OCCCC[C@@H](C)Oc3ccc(NC(=O)CCC(F)(F)F)cc3C(=O)N([C@@H](C)CO)C[C@@H]2C)cc1
  A: 0; B: 4; C: -4.7; D: i

mol: COc1cccc(-c2ccc3n(c2=O)C[C@H]2[C@H](CO)[C@@H](C(=O)N4CCCCC4)N(C)[C@@H]32)c1
  A: -3; B: -3; C: 0.1; D: i

mol: COCCNC(=O)[C@@H]1[C@@H](CO)[C@@H]2Cn3c(cccc3=O)[C@H]1N2S(=O)(=O)c1ccccc1C
  A: 2; B: 5; C: -2.0; D: i

mol: COc1cccc(S(=O)(=O)N2C[C@@H](O)COC[C@H]3O[C@H](CC(=O)N4CCCCC4)CC[C@@H]32)c1
  A: -4; B: 3; C: 1.1; D: i

mol: CC(=O)N(C)C[C@H]1Oc2cc(C#CC3(O)CCCC3)ccc2S(=O)(=O)N([C@@H](C)CO)C[C@@H]1C
  A: -1; B: -5; C: -1.7; D: i

mol: COCc1cn(CC[C@H]2CC[C@H](NC(=O)Nc3ccc(Cl)cc3)[C@@H](CO)O2)nn1
  A: -3; B: -8; C: 0.0; D: i

mol: COC(=O)C[C@H]1CC[C@@H]2[C@H](COC[C@H](O)CN2S(=O)(=O)c2cn(C)cn2)O1
  A: 0; B: -3; C: 0.7; D: i

mol: COc1ccc(CN(C)C[C@H]2OCCCC[C@@H](C)Oc3ccc(N(C)C)cc3C(=O)N([C@@H](C)CO)C[C@H]2C)cc1
  A: -1; B: -6; C: -1.4; D: i

mol: Cc1ccc(-c2cnc3c(c2)C(=O)N([C@@H](C)CO)C[C@@H](C)[C@H](CN(C)CC2CCCCC2)O3)cc1
  A: 1; B: -11; C: 0.7; D: i

mol: C[C@H](CO)N1C[C@H](C)[C@H](CN(C)C(=O)C2CC2)Oc2cc(-c3cccc(C#N)c3)ccc2S1(=O)=O
  A: -10; B: -2; C: 1.9; D: i

mol: CCc1cc2c(nc1CC)CCCN2S(=O)(=O)c1ccccc1
  A: -48; B: -74; C: -15; D: ·

mol: C[C@@H]1CN([C@H](C)CO)C(=O)c2cc(NS(=O)(=O)c3ccc(Cl)cc3)ccc2O[C@@H](C)CCCCO[C@H]1CN(C)C(=O)C1CCCCC1
  A: 0; B: -11; C: 0.9; D: i

mol: COC(=O)[C@]12C[C@H](CC(=O)NCC34CC5CC(CC(C5)C3)C4)C(=O)N(CCC3=CCCCC3)C1=C[C@H](C(C)(C)C)O[C@@H]2C
  A: 7; B: 13; C: 2.7; D: i

mol: C[C@@H]1CN([C@H](C)CO)C(=O)Cc2cc(NS(=O)(=O)c3ccc(Cl)cc3)ccc2O[C@H]1CN(C)S(=O)(=O)c1ccccc1
  A: -3; B: -6; C: -2.3; D: i

mol: COc1ccc(S(=O)(=O)Nc2ccc3c(c2)C(=O)N([C@H](C)CO)C[C@H](C)[C@@H](CN(C)C(=O)CCCN(C)C)OCCCC[C@@H](C)O3)cc1
  A: 2; B: 1; C: -4.7; D: i

mol: COc1ccc(NC(=O)Nc2ccc3c(c2)C(=O)N([C@@H](C)CO)C[C@@H](C)[C@@H](CN(C)C(=O)NC2CCCCC2)OCCCC[C@H](C)O3)cc1
  A: -1; B: -2; C: -2.4; D: i
